YopH inh: YopH tyrosine phosphatase inhibitors, primary screen, biochemical, fluorescence Ex485/Em525 | inhibition, %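 (about 10 µM by stock and volumes)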 | 140,000 tested, 0.16% active;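 active = inhibition of 50% or more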;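 also: controls were vehicle for no effect and minimum signal wells for full effect; inactives centre near -20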
Mtb growth: M. tuberculosis H37Rv growth inhibitors, H37Rv strain (AID 1626) | inhibition, % at 10 µM, or IC50 in µM where a hit was titrated | M. tuberculosis H37Rv growth inhibition; higher % means a stronger effect | 220,000 tested, 0.95% active;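 active = confirmed in a dose series; inconclusive = inhibition above 80% but not taken into the dose series; inactive = below 80% or under 30% at every dose of the series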;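 also: bacteria incubated seven days before Alamar blue readout; 0% = bacteria only wells and 100% = bacteria with antibiotic wells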
Mtb betalactam: beta-lactam sensitization of Mtb H37Rv, H37Rv | M. tuberculosis H37Rv growth with meropenem, percent inhibition; hits of this screen are not shown here | AID 434955, 2010 | 330,000 tested, 0.27% active | inhibition, % at 25 µM;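 active = about 74% or more and at least 40 points above the plate without the antibiotic, then above 30% in a dose series; inconclusive = first-round hits that could not be retested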;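 also: growth measured after seven days incubation then overnight dye step; 0% = bacteria only wells and 100% = bacteria with antibiotic; twin plates without the antibiotic show which effects depend on it; some results filed as inactive read as strong as hits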
RecA intein inh: Mtb RecA intein splicing inhibitors, primary screen, biochemical, fluorescence, HTS; Protein RecA (Mycobacterium tuberculosis (strain ATCC 25618 / H37Rv)), P9WHJ3; cell-free RecA intein splicing; inhibition, %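 (about 9 µM by stock and volumes)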; 290,000 tested, 0.75% active; AID 2221, 2009; in the data active = inhibition above about 30%; inconclusive = no clear call, values can overlap the other calls;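 also: 0% = vehicle wells and 100% = reference inhibitor control wells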
Target sequence (P9WHJ3 whole entry, looked up): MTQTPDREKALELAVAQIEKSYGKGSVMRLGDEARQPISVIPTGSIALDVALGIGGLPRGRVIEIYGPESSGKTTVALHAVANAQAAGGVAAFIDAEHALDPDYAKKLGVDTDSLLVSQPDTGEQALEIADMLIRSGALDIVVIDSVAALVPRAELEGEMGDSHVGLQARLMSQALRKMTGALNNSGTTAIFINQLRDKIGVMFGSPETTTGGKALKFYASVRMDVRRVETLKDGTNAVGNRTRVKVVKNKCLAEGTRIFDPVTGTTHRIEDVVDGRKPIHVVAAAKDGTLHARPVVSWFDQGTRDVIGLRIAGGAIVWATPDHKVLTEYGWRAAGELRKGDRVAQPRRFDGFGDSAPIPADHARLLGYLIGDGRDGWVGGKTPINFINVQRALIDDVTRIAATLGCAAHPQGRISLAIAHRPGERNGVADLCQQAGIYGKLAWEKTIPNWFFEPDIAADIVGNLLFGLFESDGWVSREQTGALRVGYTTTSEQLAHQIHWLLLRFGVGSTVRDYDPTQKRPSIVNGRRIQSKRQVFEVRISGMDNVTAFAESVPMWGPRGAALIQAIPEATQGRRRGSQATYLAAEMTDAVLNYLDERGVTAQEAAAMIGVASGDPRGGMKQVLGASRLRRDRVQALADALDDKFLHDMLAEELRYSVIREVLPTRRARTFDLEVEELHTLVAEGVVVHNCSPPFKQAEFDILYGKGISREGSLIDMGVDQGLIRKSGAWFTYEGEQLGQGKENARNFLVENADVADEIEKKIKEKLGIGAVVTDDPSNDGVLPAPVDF
Arbovirus anti: antivirals against arbovirus infection, primary screen, cell-based, full library, 10K replicate subset. arbovirus infection cell-based antiviral screen. inhibition, % at 10 µM. 200,000 tested, 0.37% active;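 active = inhibition from about 30%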;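 also: bluetongue infection of BSR cells; cell survival read as ATP light after 72 h; 0% = infected wells without compound and 100% = uninfected wells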
Arbovirus anti repeat: second read-out of Arbovirus anti, no call of its own (marks repeat the call); inhibition, %; measured here: 10K subset replicate screen; many hits read low in the repeat;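 first of two repeat runs on a subset; 0% = infected and 100% = uninfected wells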
Active calls of the source: *. Some of the compounds tested; the hit share may differ from the screen's.

Screening CN(CCC1CCOCC1)C(=O)C1CCC(=O)N(CCc2ccccc2)C1 (stereo unspecified) returned Mtb betalactam -11.6 and RecA intein inh -0.8.
Screening O=C(COc1c(Br)cc(Br)cc1Br)N/N=C/c1ccco1 returned Mtb betalactam -4.3 and RecA intein inh 2.1.
Cn1c(=O)n(C)c2cc(/C=N/n3cnnc3)ccc21 was read as YopH inh -28.7, Mtb growth 3.4%, Mtb betalactam -0.4, RecA intein inh -1.6 and Arbovirus anti 1.2.
Screening CCc1nnc(NC(=O)C23CC4CC(CC(C4)C2)C3)s1 returned Mtb betalactam -2.7 and RecA intein inh -1.4.
For COc1ccccc1-c1ccc(SCC(=O)NC2CCCC2)nn1 the results were Mtb betalactam 3.1 and RecA intein inh 0.9.
Screening Cn1cccc1/C=C1\SC(=O)N(CC(=O)Nc2ccc(Cl)cc2)C1=O returned YopH inh -33.8, Mtb growth -5.3%, Mtb betalactam 14.4, RecA intein inh -0.2 and Arbovirus anti -5.6.
`CCCCC(=O)Nc1cccc(-c2cn3ccsc3n2)c1` gave YopH inh -21.5, Mtb growth 13.0%, Mtb betalactam -5.1, RecA intein inh -3.6 and Arbovirus anti -6.5.
For COc1ccc(OC)c(NC(=O)CSc2nc3cccnc3n2C)c1 the results were YopH inh -0.8, Mtb growth 3.4%, Mtb betalactam 2.7, RecA intein inh 0.9 and Arbovirus anti -1.2.
Screening COc1ccc2c(c1OC)C(=O)N1C2SC[C@H]1C(=O)NC1CCCC1 (stereo partly specified) returned Mtb betalactam 2.9 and RecA intein inh 0.3.
COc1ccccc1C(=O)NC(=S)N1CCc2ccccc21 was read as Mtb growth -3.8%, Mtb betalactam 3.0, RecA intein inh 0.8 and Arbovirus anti 0.1.
`CCOc1cc(C2Nc3cccc4cccc(c34)N2)ccc1O` gave YopH inh -0.8, Mtb growth -3.2%, Mtb betalactam 97.3, RecA intein inh 16.4 and Arbovirus anti -7.5.
CC(c1ccccc1)C1C(C#N)=C(N)OC2=C1C(=O)CC(C)(C)C2 (stereo unspecified) was read as YopH inh 5.8, Mtb growth -9.4%, Mtb betalactam 1.0, Arbovirus anti -2.0 and Arbovirus anti repeat 6.8.
For COc1cc(-c2nc3ccccn3c2N)ccc1O the results were Mtb betalactam 4.7 and RecA intein inh -69.8.
CCn1c(SCC(=O)Nc2ccccc2OC)nc2ccccc2c1=O was read as YopH inh -5.6, Mtb growth -0.6%, Mtb betalactam 13.9, RecA intein inh 2.3 and Arbovirus anti -1.4.
Screening O=C(COc1ccccc1Cl)NCCCNC(=O)c1cnccn1 returned Mtb betalactam 1.8 and RecA intein inh 3.2.
Cc1ccc(C)c(CNS(=O)(=O)c2c(C)[nH]c(C)c2C(=O)N2CCCC2)c1 was read as Mtb betalactam -4.6 and RecA intein inh -2.4.
Screening Cn1cnc2nc3n(c2c1=O)CCC3 returned YopH inh 4.4, Mtb growth -5.0%, Mtb betalactam -10.1, RecA intein inh -0.9 and Arbovirus anti 1.5.
Oc1ccc(NC(=S)Nc2ccc(O)cc2)cc1 was read as Mtb growth -4.9%, Mtb betalactam -8.0, RecA intein inh -5.0 and Arbovirus anti -10.4.
COc1ccc(NC(=O)CN(C)C(=O)c2ccc(-c3cccc(C(F)(F)F)c3)o2)cc1 was read as Mtb betalactam 2.9 and RecA intein inh 1.1.
COCc1cc(C)nc(NCCc2ccccc2)c1C#N was read as YopH inh -16.3, Mtb growth 10.6%, Mtb betalactam 3.2, RecA intein inh -1.6 and Arbovirus anti -10.7.
O=C(C[n+]1ccc(-c2cc(C(=O)Nc3cccc(C(F)(F)F)c3)c3ccccc3n2)cc1)c1cccc([N+](=O)[O-])c1 was read as Mtb growth 55.9%, Mtb betalactam 10.5, RecA intein inh 5.2 and Arbovirus anti -22.5.
CCC(CC)C(=O)Nc1cc([N+](=O)[O-])ccc1F was read as YopH inh -23.3, Mtb growth 4.9%, Mtb betalactam -0.6, RecA intein inh 0.9 and Arbovirus anti 3.1.
For Cc1cccc(NC(=S)N/N=C2/CCCCc3ccccc32)c1 the results were YopH inh 8.3, Mtb growth 3.4%, Mtb betalactam -4.3, RecA intein inh 30.0* and Arbovirus anti -5.2.
For COc1ccc(CCNC(=O)c2cc3c(=O)n4ccccc4nc3n(CCCN3CCOCC3)c2=N)cc1 the results were Mtb betalactam 8.8 and RecA intein inh -19.8.
Screening COc1cc(NC(=S)N2CCN(C)CC2)cc(OC)c1 returned Mtb betalactam 6.5 and RecA intein inh -0.1.
O=C(O)C1CCCC2CN3CCc4c([nH]c5ccccc45)C3C(O)C21 (stereo unspecified) was read as Mtb betalactam -2.2 and RecA intein inh 2.1.
Screening O=C(Nc1cc(=O)[nH]c2ncnn12)c1ccc(Cl)cc1Cl returned YopH inh -25.0, Mtb growth -9.8%, Mtb betalactam -0.4, RecA intein inh -2.7 and Arbovirus anti 4.8.
`COc1ccc(NC(=O)CSc2nc3ccccc3c(=O)n2CCNC(C)=O)c(OC)c1` gave YopH inh -26.5, Mtb growth -0.6%, Mtb betalactam 5.2, RecA intein inh 1.7 and Arbovirus anti -0.3.
`CCn1c(SCc2nc3sc(C(=O)O)c(C)c3c(=O)[nH]2)nnc1-c1ccc(Cl)cc1` gave Mtb growth -0.3%, Mtb betalactam -5.1, RecA intein inh -0.6 and Arbovirus anti -2.4.
`CCOc1ccc(C(C)C)cc1S(=O)(=O)N1CCN(C(=O)c2ccco2)CC1` gave Mtb betalactam -0.6 and RecA intein inh 5.4.
Screening CCCCN(Cc1cc2ccccc2[nH]c1=O)S(=O)(=O)c1ccc(C)cc1 returned Mtb betalactam 0.5 and RecA intein inh 7.8.
`COc1ccc(NS(=O)(=O)c2cccc(Cl)c2Cl)cc1S(=O)(=O)N1CCCCC1` gave YopH inh -6.4, Mtb growth 0.1%, Mtb betalactam 8.5, RecA intein inh 5.9 and Arbovirus anti 27.3.
O=C(O)c1cccc(O)c1O was read as Mtb growth -6.6%, Mtb betalactam 23.1 and RecA intein inh -1.2.
`CC1CC(C)CN(CCCNC(=O)Cn2ncc3c(=O)oc4ccccc4c32)C1` (stereo unspecified) gave YopH inh -22.4, Mtb growth -1.4%, Mtb betalactam 3.3, RecA intein inh -1.4, Arbovirus anti -0.3 and Arbovirus anti repeat 6.5.
Screening CCC(=Nc1ccc(OC)cc1OC)c1c(O)n(C)c(=O)n(C)c1=O returned YopH inh 10.5, Mtb growth -2.9%, Mtb betalactam 17.7, RecA intein inh 0.6 and Arbovirus anti 5.2.
`O=C(CSCc1ccc([N+](=O)[O-])cc1)Nc1ccccc1C(=O)O` gave Mtb growth 2.0%, Mtb betalactam 11.2, RecA intein inh 4.4 and Arbovirus anti -1.0.
Screening CCCC(=O)c1ccc(N2CCN(C(=O)c3ccc(Br)cc3)CC2)c(F)c1 returned YopH inh -5.7, Mtb growth 1.4%, Mtb betalactam 6.1, RecA intein inh 3.1 and Arbovirus anti 5.9.
`O=C(Nc1ccccc1C(=O)Nc1ccccn1)c1cc(F)c(F)cc1Cl` gave Mtb betalactam 0.7 and RecA intein inh 2.8.
CC(C)c1ccc(/C=N/NC(=O)c2nnn(-c3nonc3N)c2CSC2=NCCS2)cc1 was read as YopH inh -8.1, Mtb growth -0.8%, Mtb betalactam 3.0, RecA intein inh 33.8* and Arbovirus anti -10.3.
C/C(=C\C(=O)c1ccccc1)Nc1ccc(Cl)c(Br)c1 was read as YopH inh -8.8, Mtb growth inconclusive, Mtb betalactam 98.2 and RecA intein inh -1.7.
COc1ccc(NC(=O)Nn2cnnc2)cc1OC was read as Mtb betalactam -13.6 and RecA intein inh 0.6.
`CCOC(=O)C1CCCN(C(=O)c2ccc([N+](=O)[O-])c(C)c2)C1` (stereo unspecified) gave YopH inh -38.5, Mtb growth -2.1%, Mtb betalactam -9.1, RecA intein inh -1.7 and Arbovirus anti 4.9.
For Cc1cccc(OCc2nnc(SCc3nc4cc(C(F)(F)F)ccc4c(=O)[nH]3)o2)c1 the results were YopH inh 4.8, Mtb growth -4.9%, Mtb betalactam 12.4, RecA intein inh -0.2 and Arbovirus anti -5.7.
Screening Cc1ccccc1OCCN1C(=O)C(=O)c2cccc(C)c21 returned YopH inh 4.0, Mtb growth 0.9%, Mtb betalactam -0.2, RecA intein inh -0.4 and Arbovirus anti -5.0.
For Cc1cc(C)c(NC(=O)COc2ccc(-n3cnnn3)cc2)c(C)c1 the results were Mtb betalactam -1.0 and RecA intein inh 1.1.
O=C(Nc1ncc(Cc2cccc([N+](=O)[O-])c2)s1)c1ccco1 was read as Mtb growth 1.4%, Mtb betalactam -6.5, RecA intein inh -3.8 and Arbovirus anti -29.8.
Cc1ccnc(NS(=O)(=O)c2cc(C(F)(F)F)ccc2Cl)c1 was read as Mtb growth -3.3%, Mtb betalactam -3.6 and RecA intein inh 1.7.
`CCN1CCN(Cc2ccc(OC(F)(F)F)cc2)CC1` gave YopH inh 5.6, Mtb growth 1.0%, Mtb betalactam -5.6, RecA intein inh 1.5 and Arbovirus anti -2.8.
For O=C1CSC(c2ccccn2)N1c1ccccc1F (stereo unspecified) the results were Mtb growth 4.8%, Mtb betalactam 0.4, RecA intein inh 1.9 and Arbovirus anti -0.9.
`CCn1c(/C=C/N(C)c2ccccc2)[n+](CC)c2ccc(Cl)cc21` gave YopH inh -22.9, Mtb growth -3.0%, Mtb betalactam -0.7, RecA intein inh -1.4 and Arbovirus anti -24.0.
CCN1C(=O)CSC1=Nc1ccccc1Cl was read as Mtb betalactam 1.2 and RecA intein inh -2.4.
For CCCCN(C(=O)Cc1coc2cc(C)c(C)cc12)c1c(N)n(Cc2ccccc2)c(=O)[nH]c1=O the results were Mtb betalactam -20.8 and RecA intein inh 1.8.
For COc1ccc(-c2cc3nc(C)c(CCC(=O)NCc4ccco4)c(C)n3n2)c(OC)c1 the results were YopH inh -13.8, Mtb growth 11.2%, Mtb betalactam -2.3, RecA intein inh 1.3 and Arbovirus anti 1.6.
CCn1cc(C(=O)NCCCN2CCN(C)CC2)c(=O)c2cc(S(=O)(=O)N3CCc4ccccc4C3)ccc21 was read as Mtb growth -0.5%, Mtb betalactam -2.2 and Arbovirus anti 15.1.
For O=c1[nH]c(N2CCN(c3ccccc3)CC2)nc2c1CCC2 the results were YopH inh -66.3, Mtb growth -9.5%, Mtb betalactam -2.7, RecA intein inh 1.1 and Arbovirus anti -1.7.
Screening COc1ccc2cc(C(=O)N3CCN(Cc4ccc5c(c4)OCO5)CC3)[nH]c2c1 returned Mtb betalactam 2.1 and RecA intein inh -0.4.
C/C(=N\NC(N)=S)C12CC3CC(CC(C3)C1)C2 was read as YopH inh -21.1, Mtb growth 68.0%, Mtb betalactam 6.5, RecA intein inh 0.7 and Arbovirus anti -9.6.
Screening COc1ccc(OC)c(S(=O)(=O)Nc2cnc3ccccc3c2)c1 returned YopH inh -36.4, Mtb growth -0.1%, Mtb betalactam 5.5, RecA intein inh 5.5 and Arbovirus anti -1.1.
Screening CCC(C)(C)n1nnnc1C(c1ccccc1OC)N1CCSCC1 (stereo unspecified) returned YopH inh -23.0, Mtb growth 0.1%, Mtb betalactam -0.8, RecA intein inh 6.3 and Arbovirus anti -3.1.
Screening N=c1c[n+](CC23CC4CC(CC(C4)C2)C3)[n-]o1 returned YopH inh -21.9, Mtb growth 2.0%, Mtb betalactam 2.3, RecA intein inh -4.9 and Arbovirus anti 8.8.
Screening Cc1c(Cl)cccc1NC(=O)CCC(=O)c1cccs1 returned Mtb betalactam -2.6 and RecA intein inh -2.8.
For N#Cc1c(NC(=S)NC(=O)c2ccccc2)sc2c1CCC2 the results were YopH inh -28.7, Mtb betalactam 2.4, RecA intein inh -7.3 and Arbovirus anti 3.6.
`O=C(COc1ccc2c3c(c(=O)oc2c1)CCC3)N1CCN(c2ccc(F)cc2)CC1` gave Mtb betalactam 8.3 and RecA intein inh 0.5.

Fetched by compound from the list above, 5 records:
CCN1C(=O)CSC1=Nc1ccccc1Cl was read as Mtb betalactam 1.2 and RecA intein inh -2.4.
Screening COc1ccc2cc(C(=O)N3CCN(Cc4ccc5c(c4)OCO5)CC3)[nH]c2c1 returned Mtb betalactam 2.1 and RecA intein inh -0.4.
`O=C(COc1ccc2c3c(c(=O)oc2c1)CCC3)N1CCN(c2ccc(F)cc2)CC1` gave Mtb betalactam 8.3 and RecA intein inh 0.5.
C/C(=N\NC(N)=S)C12CC3CC(CC(C3)C1)C2 was read as YopH inh -21.1, Mtb growth 68.0%, Mtb betalactam 6.5, RecA intein inh 0.7 and Arbovirus anti -9.6.
For N#Cc1c(NC(=S)NC(=O)c2ccccc2)sc2c1CCC2 the results were YopH inh -28.7, Mtb betalactam 2.4, RecA intein inh -7.3 and Arbovirus anti 3.6.

From PubChem BioAssay
